From PubChem
UCH37 inh: human UCH37 deubiquitinating enzyme inhibition; Q9Y5K5; purified proteasome/UCH37, Ub-AMC cleavage fluorescence; inhibition, % (test concentration not listed); 330,000 compounds, 0.33% hits; AID 588478;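 active = mean of two replicates above 20%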;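 also: 0% = compound-free wells with enzyme and 100% = wells lacking proteasome; stock transfer was 100 nL into about 20 µL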
Target sequence (Q9Y5K5 whole entry, looked up): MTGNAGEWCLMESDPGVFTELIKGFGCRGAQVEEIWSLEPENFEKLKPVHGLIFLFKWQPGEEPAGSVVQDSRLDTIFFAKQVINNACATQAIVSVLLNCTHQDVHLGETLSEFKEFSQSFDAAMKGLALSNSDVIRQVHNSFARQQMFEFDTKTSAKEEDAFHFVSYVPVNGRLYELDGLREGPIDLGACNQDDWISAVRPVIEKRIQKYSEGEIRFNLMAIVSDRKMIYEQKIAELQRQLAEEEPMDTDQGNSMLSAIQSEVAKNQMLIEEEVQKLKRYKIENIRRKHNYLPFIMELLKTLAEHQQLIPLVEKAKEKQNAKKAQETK
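Material: Human UCH37 enzyme supplied as purified proteasome complex | Schedule: 30 min compound-proteasome preincubation then 25 min substrate reaction, room temperature | Detection: AMC fluorescence from Ub-AMC cleavage, excitation 355 nm, emission 460 nm | Benchmarks: Wells without proteasome as full block, compound-free enzyme plus substrate as uninhibited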
* marks the source's active call; other numbers are inactive results.

SMILES	UCH37 inh
CCC(=NNC(N)=O)c1ccc(OC(F)F)cc1	3.4
COc1ccc2c(c1)c(C(=O)NN=Cc1cccc(O)c1)c(C)n2C	7.9
CCOc1ccc(C=NOCC(=O)NC(c2ccccc2)c2ccccc2)cc1	3.5
Cc1nn(C)cc1C=Nn1nnnc1N	-0.5
COc1ccc(CC(=O)NN=C/C=C/c2ccc3c(c2)OCO3)cc1OC	-8.5
O=[N+]([O-])c1ccccc1C=Nn1c(-c2cccnc2)n[nH]c1=S	5.3
Cc1ccc(NC(=O)C=NOCC(=O)NCc2ccccc2Cl)cc1	3.4
CN(C)CCCNC(=O)c1ccc(C=NO)nc1	-0.8
Cc1ccc2nc(C)cc(NN=Cc3ccc(F)cc3)c2c1	-39
CC(=O)NN=Cc1cc2c(cc1[N+](=O)[O-])OCO2	6.3
CC(=NNC(=O)c1nnn(-c2nonc2N)c1CN1CCC(C)CC1)c1cccc(Br)c1	7.1
O=[N+]([O-])c1ccc(C=NNC(=S)Nc2ccccc2F)o1	5.1
Cc1ccsc1C=Nn1c(-c2ccco2)n[nH]c1=S	4.0
COc1ccc(OC)c(NC(=O)C(=O)C=C(O)c2cc(OC)ccc2OC)c1	6.4
CC(=NNC(N)=O)c1ccc(Cl)cc1	-3.9
N#CC(=NO)c1nc2ccccc2s1	14
CCCOc1ccc(Br)cc1C=NNC(=O)c1cc(OC)c(OC)c(OC)c1	4.7
O=C(NN=Cc1c[nH]c2ccc(Br)cc12)C1CC1	6.9
O=C(COc1cccc(Br)c1)NN=C1CCCc2ccccc21	1.8
C=CCOc1ccc(C=NNC(=O)C(=O)Nc2ccccn2)cc1OC	-7.3
CN(C)/C=C(\C#N)C(=O)NN=Cc1ccc(F)cc1	7.5
S=c1[nH]nc(-c2ccccc2)n1N=Cc1cccs1	4.9
CC(C)(C)C(=O)ON=C(N)c1c(Cl)cccc1Cl	0.3
Cc1ncc(CO)c(C=NN=Cc2ccccc2O)c1O	3.9
Cc1cc([N+](=O)[O-])ccc1-c1ccc(C=NNC(=O)Cc2ccccc2)o1	3.4

Ten structures already listed, sorted by molecular weight, largest number first.
SMILES	UCH37 inh
CC(=NNC(=O)c1nnn(-c2nonc2N)c1CN1CCC(C)CC1)c1cccc(Br)c1	7.1
COc1ccc(OC)c(NC(=O)C(=O)C=C(O)c2cc(OC)ccc2OC)c1	6.4
O=C(COc1cccc(Br)c1)NN=C1CCCc2ccccc21	1.8
C=CCOc1ccc(C=NNC(=O)C(=O)Nc2ccccn2)cc1OC	-7.3
O=[N+]([O-])c1ccc(C=NNC(=S)Nc2ccccc2F)o1	5.1
Cc1ccc2nc(C)cc(NN=Cc3ccc(F)cc3)c2c1	-39
CC(C)(C)C(=O)ON=C(N)c1c(Cl)cccc1Cl	0.3
CN(C)CCCNC(=O)c1ccc(C=NO)nc1	-0.8
Cc1nn(C)cc1C=Nn1nnnc1N	-0.5
N#CC(=NO)c1nc2ccccc2s1	14

Carrying on:
SMILES	UCH37 inh
CCOC(=O)C1C(=NO)CC(C)(O)C(C(=O)OCC)C1c1ccc(N(C)C)cc1 (stereo not given)	-1.3
ON=C(CCc1ccccc1)c1ccc2c(c1)OCCO2	3.0
CC(=NNC(=O)c1ccc2c(c1)OCO2)c1ccc(NC(=O)CCCC(=O)O)cc1	4.0
COc1ccc(C=NNc2ccc(C(=O)O)cc2)cc1Br	6.6
COc1ccccc1NC(=O)C(=O)NN=C(C)CC(=O)Nc1ccccc1C(F)(F)F	1.4
CC(/C=C/c1ccccc1)=NNC(=O)c1cnccn1	8.9
CC(=NNC(=O)CC1N=C(Cc2ccccc2)NNC1=O)c1ccc(Br)cc1 (stereo not given)	4.7
C=C(C)C1CC=C(C)C(=NNC(=O)CNc2ccc(OCC)cc2)C1 (stereo not given)	1.6
CC(=NO)c1ccco1	0.0
N#Cc1c(N=CN2CCCC2)oc(-c2ccccc2)c1-c1ccccc1	3.4
CC(=NNc1ccc(C(=O)O)cc1)c1ccc(Br)cc1	16
Cc1ccc(C=NNC(=O)C2(C)CC2(Br)Br)cc1 (stereo not given)	12
CCOc1ccccc1C=c1sc2nc(-c3ccco3)nn2c1=O	3.9
CCC(=NNC(=O)c1cc(C2CC2)[nH]n1)c1ccccc1	1.4
CCOc1ccc(C=NNC(=O)c2cccc3ccccc23)c(OCC)c1	1.1
Cc1cccc(-n2cnc(C(=O)NN=Cc3ccccc3)c2)n1	5.2
COc1ccc(CC(=O)NN=C(C)c2ccccn2)cc1	3.7
COc1cc(C=NNC(=O)CNC(=O)C2COc3ccccc3O2)ccc1O (stereo not given)	-4.6
COc1cc(C=NN(C)c2ccccc2)cc(Cl)c1O	6.1
CCN(CC)c1ccc(C=NN2CCN(Cc3ccccc3Cl)CC2)cc1	3.6
CCOc1cc(C=NNC(=O)c2cccnc2)ccc1OCC(N)=O	7.3
CC(=O)Nc1ccccc1NC(=O)CC(C)=NNC(=O)c1ccc([N+](=O)[O-])c(Cl)c1	5.4
CC1C(=O)NN=C1C(=O)NN=Cc1ccco1 (stereo not given)	3.5
CC(=NNC(=O)c1sc(=S)n(C)c1C)c1ccccc1	5.0
COC(=O)c1cnn(-c2ccccc2)c1C=NNC(=S)Nc1ccccc1	1.5
The list continues:
SMILES	UCH37 inh
O=[N+]([O-])c1ccccc1C=NNc1nccnc1Cl	11
COc1ccc(C=NN(CCC(=O)NC(C)(C)C)C2=NS(=O)(=O)c3ccccc32)cc1	-17
CC(N=Nc1nc2ccccc2s1)=NNc1ccccc1O	0.8
O=C(NN=Cc1cccnc1)c1cccc(S(=O)(=O)Nc2cccc(Cl)c2)c1	6.2
CC1=NN(/C(=N/c2nnc(C)s2)Nc2ccc(C)cc2)[C@H](c2ccc(C)cc2)S1	5.1
Cc1cc(NN=Cc2ccco2)c2ccccc2n1	-14
COc1ccc(C=NNC(=O)c2ccc(N)cc2)cc1Cn1cc([N+](=O)[O-])cn1	6.6
Cc1cc(NN=Cc2ccccc2)nc(N2CCOCC2)n1	6.0
COc1cccc(C=NNC(=O)C(C)Sc2ccccc2)c1 (stereo not given)	3.8
Cc1ccc(-n2[nH]c(C)c(C=NNc3ccc([N+](=O)[O-])cc3[N+](=O)[O-])c2=O)cc1C	5.7
CC(Cc1ccccc1)=NNC(=O)CNC(=O)c1ccccc1F	2.4
Clc1ccc(C=NNC2=Nc3cccc4cccc2c34)cc1	2.5
Cc1onc(-c2c(Cl)cccc2Cl)c1C(=O)ON=C(C#N)c1ccccc1	0.8
O=C(NCCCN1CCOCC1)C(=O)NN=Cc1ccccc1	0.0
CC(CC(=O)Nc1ccc(Cl)cc1Cl)=NNC(=O)C(=O)N1CCCC1	-1.8
CCCOc1ccc(C=NNc2cccc([N+](=O)[O-])c2)c(O)c1	5.2
CCn1cc(C=NNC(=O)c2ccc(C#N)cc2F)c2ccccc21	7.2
CC1(N2CCCCC2)CC2(O)C(=NO)CCCC2=[N+]1[O-] (stereo not given)	0.1
COc1ccc(C=NN=Cc2ccc(OC)cc2)cc1	5.9
O=C(NN=Cc1c(Cl)nc2ccccn2c1=O)c1cccnc1	-13
CCC(C=NNC(=O)C1COc2ccccc2O1)CC (stereo not given)	2.6
CC1(C)Oc2ccc(C(=O)NN=Cc3ccc(O)cc3)cc2NC1=O	1.7
Oc1ccc(C=NNc2cccc(Cl)n2)c(O)c1	3.5
CC(=NNC(=O)c1ccccc1)c1ccc(N2CCOCC2)cc1	-8.0
O=C(NN=Cc1cccc([N+](=O)[O-])c1)C1CC(=O)N(c2ccc(Br)cc2)C1 (stereo not given)	1.8
The list goes on:
SMILES	UCH37 inh
O=C(NN=Cc1cccnc1)C1CC1(c1ccccc1)c1ccccc1 (stereo not given)	2.5
COc1cc(C=NNc2cc(C)nc(N)n2)ccc1O	5.8
COCc1cc(C)nc(OCC(=O)NN=Cc2ccccc2O)c1C#N	-3.7
CNC(=S)NN=Cc1ccc(-c2ccc(Cl)c([N+](=O)[O-])c2)o1	3.7
CCc1ccc(NC(=Nc2nc(C)cc(C)n2)NC(C)=O)cc1	2.4
O=C(Cn1cnc2ccccc21)NN=Cc1ccc([N+](=O)[O-])cc1	1.4
COC(=O)c1ccc(C=NNC(=O)c2cccc(F)c2)cc1	2.0
Cc1ccc(-c2n[nH]c(=S)n2N=Cc2cccs2)cc1	4.8
COC(=O)NN=Cc1cc(Br)ccc1O	-7.2
CC(=NOC(=O)c1cccc(Cl)c1)c1nccs1	-0.7
COc1ccc(C=NNC(=O)c2ccncc2)cc1CN1CCOCC1	6.9
CC(=NNC(=S)NC1CCCCC1)c1cccc(C(F)(F)F)c1	-0.4
COC(=O)c1ccc(COc2ccc(C=NNc3cccc(C(=O)O)c3)cc2)cc1	2.0
CCCCOc1ccc(C=NNC(=O)c2csc(C)c2C)cc1	1.8
O=C(CC(=O)NN=Cc1c(F)cccc1Cl)NCCc1ccccc1	3.9
O=C(CC=NOCc1ccc([N+](=O)[O-])cc1)Nc1ccc(Cl)cc1	6.2
CC(C)NC(=O)CC(=O)NN=Cc1ccc(F)cc1	0.2
Clc1ccc(CON=Cc2cccs2)cc1	1.2
CC(=NNC(=O)CC1C(=O)NN=C1C)c1ccco1 (stereo not given)	-0.6
CCCCCN=C(N)NN=Cc1c[nH]c2ccc(OC)cc12	1.9
Oc1ccc(C=NNC(=S)Nc2cccnc2)c(O)c1	0.8
Cc1cc(C)n(CC(=O)NN=Cc2ccco2)n1	-0.7
Cc1nnc(C)n1N=Cc1ccccc1	0.1
O=C(CNC(=O)c1ccccc1Cl)NN=Cc1ccc2c(c1)OCO2	4.7
CCOC(=O)C(C(C)=NNC(=O)C1CC1c1ccccc1)C(C)C (stereo not given)	4.1

Ordered by value in UCH37 inh (descending): three from the list above
SMILES	UCH37 inh
CC(/C=C/c1ccccc1)=NNC(=O)c1cnccn1	8.9
Cc1cc(NN=Cc2ccccc2)nc(N2CCOCC2)n1	6.0
CCOc1ccccc1C=c1sc2nc(-c3ccco3)nn2c1=O	3.9

(next part)
SMILES	UCH37 inh
CSc1nncn1N=Cc1ccc2c(c1)OCO2	-1.7
CC(=NNc1nc2ccccc2[nH]1)c1ccc(Cl)s1	-44
CCOC(=O)C(=NNc1ccc(Cl)cc1)S(=O)(=O)c1ccccc1	4.4
CC(=NNC(=O)c1cccc(NN=C(C)c2ccc([N+](=O)[O-])cc2)c1)c1ccc([N+](=O)[O-])cc1	5.9
Oc1ccc(Br)cc1C=NNC(=S)NCCc1ccccc1	0.8
Cc1ccc(NC(=O)ON=Cc2ccc(Br)cc2)cc1	3.9
COc1ccc(C=NNC(=O)c2cccc(NC(=O)c3ccccc3Cl)c2)c(OC)c1	-3.1
CNC(=S)NN=Cc1cn(CCOc2cccc(OC)c2)c2ccccc12	3.3
COc1ccc(C(C)=NNc2nccnc2Cl)cc1	3.9
CC1C(=NO)CC(c2ccco2)NC1c1ccco1 (stereo not given)	3.0
O=C(NN=Cc1ccc(OC(=O)c2ccco2)cc1)c1ccccn1	2.7
COc1ccc(C=Nc2oc(-c3ccccc3)cc2C#N)cc1	5.6
CCN(CC)S(=O)(=O)c1ccc(C(=O)NCC(=O)NN=Cc2ccccc2OC)cc1	0.5
O=C(Cc1ccccc1)NN=Cc1ccc(OCC(=O)Nc2ccccc2)cc1	7.5
CON=C(c1nonc1N)N1CCN(c2ccc([N+](=O)[O-])cc2Cl)CC1	5.8
Cc1cc(-c2ccccc2)nc(NN=Cc2ccc(O)cc2O)n1	-2.5
Cc1cccc(N=Cc2c(O)cc(C)oc2=O)n1	-2.8
CCn1c(C)nc2cc(C(=O)NN=Cc3cccc(OC)c3O)ccc21	-3.1

The list is partial; count on the stated rates, not on these rows.
